Source: PubChem BioAssay (National Center for Advancing Translational Sciences (NCATS))
SmPrx2 inh: Schistosoma mansoni Prx2 inhibition. S. mansoni Prx2 activity coupled to TGR/GSH (TGR is thioredoxin glutathione reductase), NADPH fluorescence loss, qHTS; some inactives read as strong as hits. Potency, µM. 65,000 compounds, 0.07% hits; active means full or partial inhibition curve with a strong effect at the top dose; inconclusive means weaker partial or single-point curve; inactive means no accepted curve; also: series up to 57 µM; many of its hits are not listed in these tables
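Coupled assay in which S. mansoni TGR passes NADPH reducing equivalents via glutathione to Prx2, which reduces H2O2. Compounds were preincubated 15 min at room temperature with 25 nM TGR/50 nM Prx2 mix. Kinetic NADPH fluorescence loss (ex 365/em 450 nm) was monitored.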
LT uptake inh: blocks cellular internalization of anthrax lethal toxin | Cells, anthrax lethal toxin internalization, FRET ratio (460/530) | Potency, µM (titrated, usually from 40 µM), for the others: at the top dose activity change, negative = inhibition, most hits filed as inhibitors | 70,000 compounds, 0.67% hits | AID 912; active = well fitted falling ratio curve with the 530 nm signal flat; inconclusive = other ratio curves, or a change in one channel alone; inactive = flat curves in the ratio and both channels; the % refers to the ratio; also: % is scaled to controls: 0 for no effect and ±100 for the full control effect; nearly all actives have a fitted effect of over 50% in size; tested in ME-180 cells; beta-lactamase reporter
Numbers without * were called inactive; & = joins results of further samples; [ ] = dose if it differs, or a comment. Potency is read from the fitted curve at half-maximal effect. This is a subset; the hit share may differ from the screen's.

How did COC(=O)C1=NOC2(C=C(Br)C(OC)=C(Br)C2=O)C1 (configuration not stated) do in these assays?
LT uptake inh: inconclusive

How did CCC(=O)N(Cc1cc2c(C)ccc(C)c2[nH]c1=O)C1CCCCC1 do in these assays?
SmPrx2 inh: >57; LT uptake inh: 2.4%

Results for C/C(=N\O)C(C)/[N+]([O-])=C/c1nc(C)c(C)n1O (configuration not stated) ?
LT uptake inh: inconclusive

How did CC(C)OC(=O)CCC1(C(=O)O)CCC(=O)NC1 (configuration not stated) do in these assays?
SmPrx2 inh: >57; LT uptake inh: 4.1%

What do the screens show for `CC(=O)c1ccccc1NS(=O)(=O)c1c(C)nn(-c2ccccc2)c1C`?
SmPrx2 inh: >57; LT uptake inh: -19.1%

Results for O=C(CCS(=O)(=O)Cc1ccccc1F)NCCCN1CCCCC1 ?
SmPrx2 inh: >57; LT uptake inh: -7.1%

What do the screens show for `O=C(CNCC1CCCO1)Nc1ccc(N2CCCCCC2)cc1` (configuration not stated)?
SmPrx2 inh: >57; LT uptake inh: -10.3%

How did Cc1cccc(N(C)S(=O)(=O)c2ccc3c(c2)CCC(=O)N3)c1 do in these assays?
SmPrx2 inh: >57; LT uptake inh: 2.4%

What do the screens show for `COc1ccccc1N1CCN(c2cc(=O)n(-c3ccccc3Cl)c(=O)[nH]2)CC1`?
SmPrx2 inh: >57; LT uptake inh: -4.9%

How did COc1ccc(CCN2C(=NC(=O)CCC(=O)O)SC3CS(=O)(=O)CC32)cc1OC (configuration not stated) do in these assays?
SmPrx2 inh: >57; LT uptake inh: -8.6%

Results for Cc1ccc(NCc2nnc(SCC(=O)c3ccccc3)o2)c(C)c1 ?
SmPrx2 inh: >57; LT uptake inh: -5.8%

What do the screens show for `Cc1ccnc(SCCn2c(N3CC(C)CC(C)C3)nc3c2c(=O)n(C)c(=O)n3C)n1` (configuration not stated)?
SmPrx2 inh: >57; LT uptake inh: -13.9%

Next part, overlapping the part above by 5 compounds.
How did Cc1cccc(N(C)S(=O)(=O)c2ccc3c(c2)CCC(=O)N3)c1 do in these assays?
SmPrx2 inh: >57; LT uptake inh: 2.4%

What do the screens show for `COc1ccccc1N1CCN(c2cc(=O)n(-c3ccccc3Cl)c(=O)[nH]2)CC1`?
SmPrx2 inh: >57; LT uptake inh: -4.9%

How did COc1ccc(CCN2C(=NC(=O)CCC(=O)O)SC3CS(=O)(=O)CC32)cc1OC (configuration not stated) do in these assays?
SmPrx2 inh: >57; LT uptake inh: -8.6%

Results for Cc1ccc(NCc2nnc(SCC(=O)c3ccccc3)o2)c(C)c1 ?
SmPrx2 inh: >57; LT uptake inh: -5.8%

What do the screens show for `Cc1ccnc(SCCn2c(N3CC(C)CC(C)C3)nc3c2c(=O)n(C)c(=O)n3C)n1` (configuration not stated)?
SmPrx2 inh: >57; LT uptake inh: -13.9%

How did CCCCC(c1nnnn1Cc1ccco1)N1CCN(C(=O)c2ccco2)CC1 (configuration not stated) do in these assays?
SmPrx2 inh: >57; LT uptake inh: inconclusive

How did COc1ccc(Cc2nnc(NC(=O)c3c(-c4ccccc4)noc3C)s2)cc1 do in these assays?
SmPrx2 inh: >57; LT uptake inh: -5.8%

What do the screens show for `CCC(CC)c1nc(NCCC(=O)O)c2ccccc2n1`?
SmPrx2 inh: >57; LT uptake inh: -4.3%

Results for O=C(Nc1ccccc1)Nc1ccccc1 ?
LT uptake inh: 7.8%

Results for CCOc1ccc(OCC(=O)N2CCOCC2)cc1 ?
SmPrx2 inh: >57; LT uptake inh: -9.4%

How did C[C@H](CCC(=O)O)[C@H]1CC[C@H]2[C@@H]3CC[C@@H]4C[C@H](O)CC[C@]4(C)[C@H]3CC[C@]12C do in these assays?
LT uptake inh: 13.5%

How did CC1CCCCN1CCNC(=O)C1CCN(S(=O)(=O)N2CCCCC2)CC1 (configuration not stated) do in these assays?
SmPrx2 inh: >57; LT uptake inh: 12.2%

What do the screens show for `O=C(CCc1ccccc1)n1nc(-c2ccccc2)nc1NCc1ccco1`?
SmPrx2 inh: >57; LT uptake inh: -5.3%

What do the screens show for `CC(C)(C)C(=O)CSc1nccc(=O)[nH]1`?
SmPrx2 inh: >57; LT uptake inh: -4.0%

Results for CCC(=O)N1CCc2cc(S(=O)(=O)CCC(=O)O)ccc21 ?
SmPrx2 inh: >57; LT uptake inh: -1.1%

How did CN(C)C1=NP(N(C)C)(N(C)C)=NC(c2ccccc2)=N1 do in these assays?
SmPrx2 inh: >57; LT uptake inh: -4.4%

Results for O=C(Cn1c(=O)oc2cc(S(=O)(=O)N3CCCCCC3)ccc21)NC1CCCCCCC1 ?
SmPrx2 inh: >57; LT uptake inh: -8.3%

What do the screens show for `O=C1CSC(c2ccccn2)N1Cc1cn2ccccc2n1` (configuration not stated)?
SmPrx2 inh: >57; LT uptake inh: -1.5%

What do the screens show for `O=C(NCCc1ccccc1)C1CCN(S(=O)(=O)N2CCC3(CC2)OCCO3)CC1`?
SmPrx2 inh: >57; LT uptake inh: 1.1%

How did Cc1cc(NC(=O)CSc2nc3ccsc3c(=O)n2NC(=O)c2ccccc2)no1 do in these assays?
SmPrx2 inh: >57; LT uptake inh: inconclusive

Results for O=c1cc(-c2ccc(O)cc2)oc2cc(O)cc(O)c12 ?
SmPrx2 inh: >57&>57&>57; LT uptake inh: -17.1%

What do the screens show for `CC1CCCCN1S(=O)(=O)c1ccc2c(c1)CCN2C(=O)C1CCC1` (configuration not stated)?
SmPrx2 inh: >57; LT uptake inh: 9.0%

How did COC(=O)C1C(O)=C(C=NC2CCCCC2)C(=O)CC1(C)C (configuration not stated) do in these assays?
SmPrx2 inh: >57; LT uptake inh: 8.1%

How did N#C/C(=C\NC(=S)c1ccncc1)c1nc2ccccc2s1 do in these assays?
SmPrx2 inh: >57; LT uptake inh: -15.1%[8 µM]

What do the screens show for `Cc1ccc(SC(C)c2nc(-c3ccncc3)no2)cc1` (configuration not stated)?
SmPrx2 inh: >57; LT uptake inh: 10.3%

What do the screens show for `COc1ccccc1-c1cncnc1NCc1cccc(C)c1`?
SmPrx2 inh: >57; LT uptake inh: -6.4%

Results for c1ccc2nc(C3=NCCN3)cnc2c1 ?
SmPrx2 inh: >57; LT uptake inh: -10.6%

What do the screens show for `COc1cccc(Cn2c(=O)c(C)nc3cnc(Nc4ccccc4)nc32)c1`?
SmPrx2 inh: >57; LT uptake inh: inconclusive

Results for Nn1c(SC/C=C/c2ccccc2)nnc1-c1ccncc1 ?
SmPrx2 inh: >57; LT uptake inh: 14.7%

Results for COc1nc(Nc2ccc3c(c2)OCO3)nc(OC)n1 ?
SmPrx2 inh: >57; LT uptake inh: -1.4%

Results for CC(C)C(=O)Nc1ccc(-c2nc3cccnc3o2)cc1 ?
LT uptake inh: -12.1%

Results for CCN(CC)C(=O)CSc1nnc([C@@H](N)Cc2ccccc2)o1 ?
SmPrx2 inh: >57; LT uptake inh: 2.9%

How did Cc1ccc(C2CC(C(F)(F)F)n3nc(C(=O)NCc4ccco4)cc3N2)cc1 (configuration not stated) do in these assays?
SmPrx2 inh: >57; LT uptake inh: -3.3%

Results for Cc1c(C(=O)O)oc2c1C(O)CCC2 (configuration not stated) ?
SmPrx2 inh: >57

What do the screens show for `O=C(Nc1cccnc1)c1ccc2c(c1)C(=O)N(Cc1cccnc1)C2=O`?
SmPrx2 inh: >57; LT uptake inh: 3.2%

Results for N#CCCN1CCN(S(=O)(=O)c2ccc(S(=O)(=O)N3CCCC3)cc2)CC1 ?
SmPrx2 inh: >57; LT uptake inh: -1.7%

What do the screens show for `CCOC(=O)CSc1nc2c(c(=O)[nH]c(=O)n2C)n1CCc1ccccc1`?
SmPrx2 inh: >57; LT uptake inh: -15.0%

How did CCOC(=O)C(NC(=O)c1ccc(OC)cc1)(N1CCOCC1)C(F)(F)F (configuration not stated) do in these assays?
SmPrx2 inh: >57; LT uptake inh: inconclusive

What do the screens show for `Cc1cc(=O)oc2cc(OCC(=O)N3CCc4ccccc4C3)ccc12`?
SmPrx2 inh: >57; LT uptake inh: 2.3%

Results for CCCn1nnc(NC(=O)c2ccco2)n1 ?
SmPrx2 inh: >57; LT uptake inh: -9.2%

Results for CNCCCC1c2ccccc2C=Cc2ccccc21 ?
SmPrx2 inh: >57&>57; LT uptake inh: 4.3%[3.58 µM]

How did Cc1cnc(CNc2ncnc3ccc(-c4c(C)noc4C)cc23)cn1 do in these assays?
SmPrx2 inh: >57; LT uptake inh: inconclusive

Results for CCN(CCCNC(=O)c1c(C)cc(=O)oc1C)c1cccc(C)c1 ?
SmPrx2 inh: >57; LT uptake inh: -0.8%

What do the screens show for `O=P(O)(O)C12CC3CC(CC(C3)C1)C2`?
SmPrx2 inh: >57; LT uptake inh: -5.6%

Results for CC(C)c1ccc(Cn2ccc3c4c(N)nc(NC5CC5)nc4ccc32)cc1 ?
SmPrx2 inh: >57; LT uptake inh: 25.1µM*

What do the screens show for `O=C(CSc1nnc(Cn2c(=O)sc3ccccc32)n1-c1ccccc1)N1CCOCC1`?
SmPrx2 inh: >57; LT uptake inh: -9.8%

Results for CCOC(=O)CSc1nnnn1-c1cc(OC)c(Cl)cc1OC ?
SmPrx2 inh: >57; LT uptake inh: 14.3%

Results for COc1cc(C2C(C(=O)c3ccc(C)o3)=C(O)C(=O)N2Cc2cccnc2)ccc1O (configuration not stated) ?
SmPrx2 inh: >57; LT uptake inh: -2.4%

How did COCCCNC(=O)Cn1ncc2c(=O)oc3ccccc3c21 do in these assays?
SmPrx2 inh: >57; LT uptake inh: 11.1%

How did CC(C)(C)NC(=O)C1N(c2cccnc2)C(=O)C2C(C(=O)Nc3ccccc3)C3(C)C=CC21O3 (configuration not stated) do in these assays?
SmPrx2 inh: >57; LT uptake inh: -9.1%

How did COc1cc(CN2CCN(C(=O)CC(C)C)CC2)cc(OC)c1O do in these assays?
SmPrx2 inh: >57; LT uptake inh: -16.9%

How did O=S(=O)(c1ccc(OCC(O)CN2CCN(c3ccccc3Cl)CC2)cc1)N1CCOCC1 (configuration not stated) do in these assays?
SmPrx2 inh: >57; LT uptake inh: -17.5%

What do the screens show for `COc1ccc(C2=NCC(CSc3nnc(-c4ccc5c(c4)OCO5)o3)S2)cc1` (configuration not stated)?
SmPrx2 inh: >57; LT uptake inh: -9.0%

Results for O=C(c1ccc(S(=O)(=O)N2CCOCC2)cc1)N1CCN(c2cccc(Cl)c2)CC1 ?
SmPrx2 inh: >57; LT uptake inh: -15.1%

How did Cc1noc(C)c1C(=O)OCC(=O)Nc1ccccc1C(=O)NC(C)c1ccccc1 (configuration not stated) do in these assays?
SmPrx2 inh: >57; LT uptake inh: inconclusive

What do the screens show for `N#Cc1nc(COc2ccccc2F)oc1N1CCCCCC1`?
SmPrx2 inh: >57; LT uptake inh: inconclusive

How did CCOc1ccc(NC(=O)Nc2ccc3nccnc3c2)cc1 do in these assays?
LT uptake inh: inconclusive

Results for COc1ccc(N=C2SCC(=O)N2c2ccc(OC)cc2)cc1 ?
SmPrx2 inh: >57; LT uptake inh: -8.0%

What do the screens show for `CCn1c(=O)cc(SCC(=O)NCc2cccnc2)c2ccccc21`?
SmPrx2 inh: >57; LT uptake inh: -6.8%

What do the screens show for `Cn1c(=O)c2c(nc(NCCc3ccccc3)n2CC(=O)NCCc2ccccc2)n(C)c1=O`?
SmPrx2 inh: >57; LT uptake inh: 3.6%

How did CC1CCCN(CCCNC(=O)c2coc3nc4ccccc4nc23)C1 (configuration not stated) do in these assays?
SmPrx2 inh: >57; LT uptake inh: 11.8%

How did Nc1ccc(N2CCOCC2)c(Cl)c1 do in these assays?
SmPrx2 inh: >57; LT uptake inh: 2.7%

How did CN(C)S(=O)(=O)c1cccc(C(=O)NCc2ccco2)c1 do in these assays?
SmPrx2 inh: >57; LT uptake inh: -20.8%

Results for CC1CCCN(S(=O)(=O)c2ccc(S(=O)(=O)N3CCCN(Cc4ccccc4)C3)cc2)C1 (configuration not stated) ?
SmPrx2 inh: >57; LT uptake inh: 2.3%

Results for COCCn1nnnc1C(C(C)C)N(Cc1cccnc1)Cc1cc2cc(OC)ccc2[nH]c1=O (configuration not stated) ?
SmPrx2 inh: >57; LT uptake inh: 9.9%

Results for COc1cccc(-n2c(Cc3cc(=O)[nH]c(=O)[nH]3)nnc2SCc2cccnc2)c1 ?
SmPrx2 inh: >57; LT uptake inh: -1.4%

What do the screens show for `COc1ccc(NC(=O)Cn2nc(C(F)(F)F)c3c2CCCC3)c(OC)c1`?
SmPrx2 inh: >57; LT uptake inh: 12.6µM*

Retrieved by compound from the list above, four records:
What do the screens show for `COc1ccc(NC(=O)Cn2nc(C(F)(F)F)c3c2CCCC3)c(OC)c1`?
SmPrx2 inh: >57; LT uptake inh: 12.6µM*

Results for COc1cccc(-n2c(Cc3cc(=O)[nH]c(=O)[nH]3)nnc2SCc2cccnc2)c1 ?
SmPrx2 inh: >57; LT uptake inh: -1.4%

Results for O=C(c1ccc(S(=O)(=O)N2CCOCC2)cc1)N1CCN(c2cccc(Cl)c2)CC1 ?
SmPrx2 inh: >57; LT uptake inh: -15.1%

Results for COCCn1nnnc1C(C(C)C)N(Cc1cccnc1)Cc1cc2cc(OC)ccc2[nH]c1=O (configuration not stated) ?
SmPrx2 inh: >57; LT uptake inh: 9.9%
